Source: PubChem
STK33 kin inh = inhibitors of human STK33 kinase; Q9BYT3; ADP-Glo luminescence, MBP substrate; inhibition, % at 12.5 µM; 0.44% of 27,000 active; AID 2322; in the data active = inhibition above about 20%
Target sequence (Q9BYT3 whole entry, looked up): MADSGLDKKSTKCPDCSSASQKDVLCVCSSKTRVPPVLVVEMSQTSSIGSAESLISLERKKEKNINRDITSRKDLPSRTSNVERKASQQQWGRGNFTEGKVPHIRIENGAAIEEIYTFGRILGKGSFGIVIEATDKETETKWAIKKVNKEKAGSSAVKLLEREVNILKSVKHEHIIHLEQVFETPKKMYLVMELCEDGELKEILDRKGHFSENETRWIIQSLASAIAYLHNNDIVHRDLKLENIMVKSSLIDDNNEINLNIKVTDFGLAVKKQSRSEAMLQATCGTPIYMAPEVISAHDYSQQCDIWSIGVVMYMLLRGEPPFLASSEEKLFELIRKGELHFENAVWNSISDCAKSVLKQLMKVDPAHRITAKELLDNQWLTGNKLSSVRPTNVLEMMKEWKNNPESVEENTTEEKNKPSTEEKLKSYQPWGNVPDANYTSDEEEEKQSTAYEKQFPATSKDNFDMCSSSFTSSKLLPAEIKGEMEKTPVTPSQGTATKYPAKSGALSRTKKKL
* hit, by the source's call; & = joins results of further samples. This is a subset, and most or all hits are left out here.

SMILES | STK33 kin inh
CN1[C@@H]2CC(OC(=O)[C@H](CO)c3ccccc3)C[C@H]1[C@@H]1O[C@@H]12 (some centres not stated) | -1.0
CC(=O)OCC(CCn1cnc2cnc(N)nc21)COC(C)=O | 4.5
O=C(O)CCCC[C@@H]1SC[C@@H]2NC(=O)N[C@@H]21 | -6.8
CCC(C)(C)C(=O)O[C@H]1C[C@@H](C)C=C2C=C[C@H](C)[C@H](CC[C@@H]3C[C@@H](O)CC(=O)O3)[C@H]21 | -3.4
CCn1nc(C(=O)O)c(=O)c2cc3c(cc21)OCO3 | 2.8
O=C(O)CCC/C=C\C[C@@H]1[C@@H](/C=C/[C@@H](O)COc2cccc(C(F)(F)F)c2)[C@H](O)C[C@@H]1O | 0.9
CCOC(=O)[C@H](CCc1ccccc1)N[C@H]1CCc2ccccc2N(CC(=O)O)C1=O | 0.4
CCc1oc2ccccc2c1C(=O)c1cc(Br)c(O)c(Br)c1 | -0.2
O=C(CCCN1CC=C(n2c(=O)[nH]c3ccccc32)CC1)c1ccc(F)cc1 | 1.8
Cn1c(=O)c2[nH]cnc2n(C)c1=O | 1.2&-1.2
CCn1cc(C(=O)O)c(=O)c2ccc(C)nc21 | 1.3
CC(=O)Oc1ccc(C(c2ccc(OC(C)=O)cc2)c2ccccn2)cc1 | 3.4
COc1ccc2cc([C@H](C)C(=O)O)ccc2c1 | -3.1
CC(C)OC(=O)C(C)(C)Oc1ccc(C(=O)c2ccc(Cl)cc2)cc1 | -1.5
CC1(C)S[C@@H]2[C@H](NC(=O)C3(N)CCCCC3)C(=O)N2[C@H]1C(=O)O | -1.1
CC(=O)OCC(=O)[C@@]1(O)[C@H](C)C[C@H]2[C@@H]3CCC4=CC(=O)C=C[C@]4(C)[C@@]3(F)[C@@H](O)C[C@@]21C | 1.1
C[C@H]1O[C@@H](O[C@H]2[C@@H](O)C[C@H](O[C@H]3[C@@H](O)C[C@H](O[C@H]4CC[C@]5(C)C6C[C@@H](O)[C@]7(C)[C@@H](C8=CC(=O)OC8)CC[C@]7(O)C6CC[C@@H]5C4)O[C@@H]3C)O[C@@H]2C)C[C@H](O)[C@@H]1O (some centres not stated) | 0.5
CC(=O)OCC(=O)[C@@]1(O)[C@H](C)CC2C3CCC4=CC(=O)C=C[C@]4(C)[C@@]3(F)[C@@H](O)C[C@@]21C (some centres not stated) | 1.1
COc1c2occc2c(OC)c2c(=O)cc(C)oc12 | 0.2
CCN(CC)CCNC(=O)c1ccc(N)cc1 | -2.5&3.7

Shown as comma-separated lines: 2 of the compounds above.
SMILES,STK33 kin inh
CCn1cc(C(=O)O)c(=O)c2ccc(C)nc21,1.3
CC(=O)Oc1ccc(C(c2ccc(OC(C)=O)cc2)c2ccccn2)cc1,3.4

Pulled one by one from the list above (six):
SMILES | STK33 kin inh
CCOC(=O)[C@H](CCc1ccccc1)N[C@H]1CCc2ccccc2N(CC(=O)O)C1=O | 0.4
O=C(O)CCCC[C@@H]1SC[C@@H]2NC(=O)N[C@@H]21 | -6.8
O=C(CCCN1CC=C(n2c(=O)[nH]c3ccccc32)CC1)c1ccc(F)cc1 | 1.8
O=C(O)CCC/C=C\C[C@@H]1[C@@H](/C=C/[C@@H](O)COc2cccc(C(F)(F)F)c2)[C@H](O)C[C@@H]1O | 0.9
COc1c2occc2c(OC)c2c(=O)cc(C)oc12 | 0.2
CCN(CC)CCNC(=O)c1ccc(N)cc1 | -2.5&3.7
